FGF22 binding: FGF22 (human) thermal shift binding. Q9HCT0. recombinant FGF22 thermal shift, SYPRO orange fluorescence; percent of sucrose octasulfate shift, DMSO zero. calls only at 9.99 µM. 340,000 compounds, 1.5% hits;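 active = melting point raised past a set limit in the mean and every replicate; three in four hits are not shown here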
Target sequence (Q9HCT0 whole entry, looked up): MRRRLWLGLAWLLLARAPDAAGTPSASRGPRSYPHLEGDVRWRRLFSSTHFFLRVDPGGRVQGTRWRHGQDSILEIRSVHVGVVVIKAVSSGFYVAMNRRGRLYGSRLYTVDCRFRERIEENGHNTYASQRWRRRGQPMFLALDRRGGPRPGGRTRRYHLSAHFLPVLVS
Calls only; i = inactive.

Cc1ccccc1S(=O)(=O)NCC[C@H]1CC[C@@H](NC(=O)Nc2cccc(Cl)c2)[C@H](CO)O1
  FGF22 binding = i

CCCC#Cc1ccc2c(c1)O[C@@H](CN(C)Cc1ccccn1)[C@H](C)CN([C@H](C)CO)S2(=O)=O
  FGF22 binding = i

COCC(=O)Nc1ccc2c(c1)C(=O)N(C)[C@H]1CC[C@@H](CC(=O)NCCc3ccccc3)O[C@@H]1CO2
  FGF22 binding = i

O=C(C[C@@H]1CC[C@@H](NC(=O)c2ccncc2)[C@H](CO)O1)Nc1ccccc1
  FGF22 binding = i

CO[C@@H]1CC[C@@H]2CCOc3ccc(C#N)cc3C(=O)N(C)C[C@@H](OC)[C@H](C)C(=O)N(C)C[C@@H]1O2
  FGF22 binding = i

CCC(=O)Nc1ccc2c(c1)C(=O)N(C)C[C@@H](OC)[C@H](C)CN(CC1CCCCC1)[C@@H](C)CO2
  FGF22 binding = i

C/C=C/c1ccc([C@@H]2[C@H](CO)N(C(C)=O)[C@H]2CNC(=O)c2ccncc2)cc1
  FGF22 binding = i

C[C@H](CO)N1C[C@H](C)[C@H](CN(C)Cc2ccncc2)Oc2ncc(C#Cc3cccc(F)c3)cc2C1=O
  FGF22 binding = i

CO[C@H]1CC[C@H]2CCOc3ccc(C#N)cc3C(=O)N(C)C[C@@H](C)C(=O)N(C)C[C@H]1O2
  FGF22 binding = i

CCNC(=O)[C@H]1[C@H](CO)[C@H]2Cn3c(ccc(C4=CCCCC4)c3=O)[C@H]2N1C(=O)CC1CC1
  FGF22 binding = i

Cc1noc(C)c1NC(=O)N(C)C[C@H]1Oc2c(NC(=O)C3CCOCC3)cccc2C(=O)N([C@@H](C)CO)C[C@H]1C
  FGF22 binding = i

CN1c2ccc(-c3ccccc3)cc2[C@H]2[C@H](CCN2C(=O)CC2CC2)[C@@H]1CO
  FGF22 binding = i

CO[C@@H]1CN(C)C(=O)c2ccc(NS(C)(=O)=O)cc2OC[C@H](C)N(C(=O)NC(C)C)C[C@H]1C
  FGF22 binding = i

CCCNC(=O)C[C@H]1CC[C@H]2[C@@H](COC[C@@H](O)CN2C(=O)c2cc(Cl)cc(Cl)c2)O1
  FGF22 binding = i

COc1cccc(S(=O)(=O)Nc2ccc3c(c2)C(=O)N(C)[C@H]2CC[C@H](CC(=O)Nc4ccc(C(C)C)cc4)O[C@@H]2CO3)c1
  FGF22 binding = i

CN1C(=O)c2cc(NC(=O)c3cccs3)ccc2OC[C@H]2O[C@H](CC(=O)NCC3CC3)CC[C@@H]21
  FGF22 binding = i

C[C@@H]1CN([C@H](C)CO)C(=O)c2cccc(NC(=O)Nc3cccc4ccccc34)c2O[C@@H]1CN(C)Cc1ccc(Oc2ccccc2)cc1
  FGF22 binding = i

C[C@H]1CN([C@@H](C)CO)C(=O)c2cccc(NC(=O)C3CCCCC3)c2O[C@H]1CN(C)S(=O)(=O)c1ccc(F)cc1
  FGF22 binding = i

CO[C@@H]1CN(C)C(=O)c2ccc(NC(=O)C3CC3)cc2OC[C@H](C)N(C(=O)CN(C)C)C[C@@H]1C
  FGF22 binding = i

C[C@@H]1CCCCO[C@H](CN(C)C(=O)Nc2cccc3ccccc23)[C@H](C)CN([C@@H](C)CO)C(=O)c2cc(NS(=O)(=O)c3cn(C)cn3)ccc2O1
  FGF22 binding = i

Cc1ccc(S(=O)(=O)Nc2ccc3c(c2)CC(=O)N([C@H](C)CO)C[C@H](C)[C@H](CN(C)C(=O)Nc2ccccc2)O3)cc1
  FGF22 binding = i

Cc1noc(C)c1S(=O)(=O)Nc1ccc2c(c1)CC(=O)N([C@H](C)CO)C[C@@H](C)[C@H](CN(C)S(=O)(=O)c1cn(C)cn1)O2
  FGF22 binding = i

O=S1(=O)c2ccc(Br)cc2OC2CCCN1C2 (stereo not drawn)
  FGF22 binding = i

C[C@H](CO)N1C[C@H](C)[C@H](CN(C)C(=O)C2CCCCC2)OCCCC[C@H](C)Oc2ccc(NS(=O)(=O)c3ccccc3)cc2C1=O
  FGF22 binding = i

C[C@H](O)C#Cc1ccc([C@H]2[C@@H](CO)N3CCCCN(C(=O)Nc4ccccc4)C[C@H]23)cc1
  FGF22 binding = i

O=C(C[C@H]1C[C@@H]2c3cc(NS(=O)(=O)c4ccc(F)cc4)ccc3O[C@@H]2[C@@H](CO)O1)NCc1cccnc1
  FGF22 binding = i

COc1ccccc1NC(=O)N[C@H]1CC[C@H](CC(=O)N2CCC(Cc3ccccc3)CC2)O[C@H]1CO
  FGF22 binding = i

O=C(N[C@H]1CC[C@@H](CCn2cc(C3(O)CCCC3)nn2)O[C@@H]1CO)C1CCCC1
  FGF22 binding = i

O=C(C[C@H]1CC[C@@H]2[C@H](COC[C@@H](O)CN2Cc2ccccc2F)O1)NCc1ccccc1F
  FGF22 binding = i

COc1ccc2c3c(n(C)c2c1)[C@@H](CO)N(Cc1cccc(Cl)c1)CC31CN(C(C)=O)C1
  FGF22 binding = i

CO[C@H]1CN(C)C(=O)c2ccc(NC(=O)c3ccccc3F)cc2OC[C@@H](C)N(CC2CCOCC2)C[C@H]1C
  FGF22 binding = i

C[C@@H]1CN([C@@H](C)CO)C(=O)c2cc(NC(=O)C3CCCCC3)ccc2O[C@@H](C)CCCCO[C@@H]1CN(C)C(=O)Nc1ccc(C(F)(F)F)cc1
  FGF22 binding = i

CC(=O)N(C)C[C@H]1Oc2cc(C#CC3(O)CCCC3)ccc2S(=O)(=O)N([C@@H](C)CO)C[C@H]1C
  FGF22 binding = i

O=C(C[C@@H]1CC[C@H]2[C@@H](COC[C@@H](O)CN2C(=O)c2ccc3c(c2)OCO3)O1)NC1CCC1
  FGF22 binding = i

C[C@@H]1CN([C@@H](C)CO)C(=O)c2cc(NC(=O)Nc3ccc4c(c3)OCO4)ccc2O[C@H]1CN(C)Cc1ccc(C(F)(F)F)cc1
  FGF22 binding = i

CO[C@@H]1CN(C)C(=O)c2cc(NC(=O)c3ccc(Oc4ccccc4)cc3)ccc2OC[C@H](C)NC[C@@H]1C
  FGF22 binding = i

COc1ccccc1S(=O)(=O)N(C)C[C@H]1OCc2ccccc2-c2c(n(C)c3ccccc23)C(=O)N([C@H](C)CO)C[C@H]1C
  FGF22 binding = i

C[C@H]1CN([C@@H](C)CO)C(=O)c2ccccc2-c2ccccc2CO[C@@H]1CN(C)Cc1cccc(C(F)(F)F)c1
  FGF22 binding = i

CCCC#Cc1cnc2c(c1)C(=O)N([C@H](C)CO)C[C@@H](C)[C@@H](CN(C)C(=O)C1CC1)O2
  FGF22 binding = i

Cc1noc(C)c1NC(=O)Nc1ccc2c(c1)C(=O)N([C@H](C)CO)C[C@H](C)[C@@H](CN(C)S(=O)(=O)c1cn(C)cn1)OCCCC[C@@H](C)O2
  FGF22 binding = i

Following part
SMILES | FGF22 binding
C[C@H]1CN([C@@H](C)CO)C(=O)c2cc(C3=CCCCC3)cnc2O[C@H]1CN(C)Cc1ccccc1C(=O)O | i
CCNC(=O)C[C@H]1CC[C@@H]2[C@H](COC[C@@H](O)CN2C(=O)Nc2ccc3c(c2)OCO3)O1 | i
CCC(=O)Nc1ccc2c(c1)OC[C@@H](C)N(CCc1ccccc1)C[C@@H](C)[C@H](OC)CN(C)C2=O | i
Cc1noc(C)c1S(=O)(=O)Nc1ccc2c(c1)C(=O)N([C@H](C)CO)C[C@H](C)[C@H](CN(C)Cc1ccc3c(c1)OCO3)O2 | i
O=C(N[C@H]1CC[C@H](CCn2cc(-c3ccc(F)cc3)nn2)O[C@@H]1CO)c1cnccn1 | i
CCCNC(=O)Nc1ccc2c(c1)OC[C@H](C)N(Cc1cccnc1)C[C@@H](C)[C@@H](OC)CN(C)C2=O | i
O=C(C[C@H]1C=C[C@H](NC(=O)C2CCC2)[C@@H](CO)O1)NC1CCC1 | i
COc1ccc(CN(C)C[C@H]2Oc3ccc(NC(=O)Nc4ccc(C(F)(F)F)cc4)cc3C(=O)N([C@H](C)CO)C[C@H]2C)cc1 | i
C[C@H]1CN([C@@H](C)CO)C(=O)c2cc(C3=CCCCC3)cnc2O[C@@H]1CN(C)C(=O)c1ccc(F)cc1 | i
COCCNC(=O)C[C@H]1CC[C@H]2[C@@H](COC[C@@H](O)CN2C(=O)Nc2ccccc2OC)O1 | i
C[C@H]1CN([C@@H](C)CO)C(=O)c2cc(C#CC3CCCCC3)cnc2O[C@@H]1CN(C)C(=O)NC1CCCC1 | i
C[C@@H]1CN([C@H](C)CO)C(=O)c2cc(C#Cc3ccccc3F)cnc2O[C@@H]1CN(C)C(=O)Cc1cccnc1 | i
O=C(N[C@H](Cc1ccccc1)C(=O)N1CCN(C(=O)N2CCOCC2)CC1)[C@H]1O[C@@H](n2ccc(=O)[nH]c2=O)[C@H](O)[C@@H]1O | i
CN1CCCCN2[C@H](CO)[C@H](c3ccc(C4=CCCC4)cc3)[C@H]2C1 | i
O=S(=O)(N[C@H]1CC[C@H](CCn2cc(C3(O)CCCC3)nn2)O[C@@H]1CO)c1ccc(Cl)cc1 | i
C[C@H](CO)N1C[C@H](C)[C@@H](CN(C)S(=O)(=O)c2ccc(Cl)cc2)Oc2ccc(NC(=O)CCN3CCOCC3)cc2CC1=O | i
COCC(=O)N(C)C[C@H]1Oc2ncc(C#Cc3ccccc3OC)cc2C(=O)N([C@@H](C)CO)C[C@@H]1C | i
Cc1noc(C)c1NC(=O)N(C)C[C@H]1Oc2ccc(NS(=O)(=O)c3ccc(Cl)cc3)cc2C(=O)N([C@H](C)CO)C[C@H]1C | i
C[C@H]1CN([C@@H](C)CO)C(=O)Cc2cc(NS(=O)(=O)c3ccc(Cl)cc3)ccc2O[C@H]1CN(C)Cc1ccc(Cl)c(Cl)c1 | i
C[C@@H]1CN([C@H](C)CO)C(=O)c2cc(-c3ccccc3F)cnc2O[C@@H]1CN(C)C(=O)C1CCCCC1 | i
C[C@@H]1CN([C@@H](C)CO)C(=O)Cc2cc(N(C)C)ccc2O[C@@H]1CN(C)C(=O)Nc1cccc2ccccc12 | i
CO[C@@H]1CN(C)C(=O)c2cc(NC(=O)C3CC3)ccc2OC[C@H](C)N(CC2CCOCC2)C[C@H]1C | i
C/C=C/c1ccc([C@@H]2[C@@H](CO)N(S(=O)(=O)CC)C23CN(C(=O)CC)C3)cc1 | i
CNC[C@@H]1Oc2c(NS(=O)(=O)c3ccc(C)cc3)cccc2C(=O)N([C@@H](C)CO)C[C@H]1C | i
CC(C)NC(=O)N(C)C[C@H]1OCCCC[C@@H](C)Oc2ccc(NC(=O)Nc3ccc4c(c3)OCO4)cc2C(=O)N([C@@H](C)CO)C[C@H]1C | i
COC(=O)c1c(-c2ccc(OC)cc2)c2c(c3c4cc(OC)ccc4n(S(=O)(=O)c4ccc(C)cc4)c13)C(=O)N(C)C2 | i
CO[C@@H]1CN(C)C(=O)c2cc(NC(=O)c3cc(C)on3)ccc2OC[C@H](C)N(C(C)=O)C[C@@H]1C | i
C[C@@H]1CN([C@@H](C)CO)C(=O)c2cc(N(C)C)ccc2O[C@@H]1CN(C)S(=O)(=O)c1ccc(Cl)cc1 | i
C[C@H]1CN([C@@H](C)CO)C(=O)c2cc(NS(=O)(=O)c3ccc(Cl)cc3)ccc2O[C@@H]1CN(C)C(=O)Nc1cccc2ccccc12 | i
Cc1ccc(S(=O)(=O)Nc2ccc3c(c2)C(=O)N([C@H](C)CO)C[C@@H](C)[C@@H](CN(C)C(=O)NC2CCCCC2)O3)cc1 | i

Entries listed so far that contain a CF3 group:
SMILES | FGF22 binding
C[C@@H]1CN([C@@H](C)CO)C(=O)c2cc(NC(=O)C3CCCCC3)ccc2O[C@@H](C)CCCCO[C@@H]1CN(C)C(=O)Nc1ccc(C(F)(F)F)cc1 | i
C[C@@H]1CN([C@@H](C)CO)C(=O)c2cc(NC(=O)Nc3ccc4c(c3)OCO4)ccc2O[C@H]1CN(C)Cc1ccc(C(F)(F)F)cc1 | i
C[C@H]1CN([C@@H](C)CO)C(=O)c2ccccc2-c2ccccc2CO[C@@H]1CN(C)Cc1cccc(C(F)(F)F)c1 | i
COc1ccc(CN(C)C[C@H]2Oc3ccc(NC(=O)Nc4ccc(C(F)(F)F)cc4)cc3C(=O)N([C@H](C)CO)C[C@H]2C)cc1 | i

Other results
SMILES | FGF22 binding
Cc1ccc(S(=O)(=O)N(C)C[C@H]2OCCCC[C@@H](C)Oc3ccc(NC(=O)CCCN(C)C)cc3C(=O)N([C@@H](C)CO)C[C@H]2C)cc1 | i
COc1cccc(NC(=O)N(C)C[C@H]2Oc3cc(C#Cc4ccncc4)ccc3S(=O)(=O)N([C@@H](C)CO)C[C@@H]2C)c1 | i
COc1ccc(S(=O)(=O)N(C)C[C@H]2OCCCC[C@@H](C)Oc3ccc(NC(=O)NC(C)C)cc3C(=O)N([C@H](C)CO)C[C@H]2C)cc1 | i
COc1ccc(CN(C)C[C@@H]2Oc3ccc(NC(=O)Cc4cn(C)c5ccccc45)cc3CC(=O)N([C@@H](C)CO)C[C@H]2C)cc1 | i
COc1ccc2c3c([nH]c2c1)[C@H](CO)N(Cc1ccc(Cl)cc1)CC31CCN(Cc2ccccc2)CC1 | i
CCNC(=O)C[C@H]1CC[C@@H]2[C@H](COc3ccc(NC(=O)Nc4ccccc4F)cc3C(=O)N2C)O1 | i
CC(C)NC(=O)N(C)C[C@@H]1Oc2ccc(NC(=O)CCC(F)(F)F)cc2C(=O)N([C@@H](C)CO)C[C@H]1C | i
C[C@@H](NC(=O)C[C@H]1CC[C@H]2[C@@H](COC[C@@H](O)CN2C(=O)Nc2cccc(Cl)c2)O1)c1ccccc1 | i
O=C(O)C[C@@H]1CC[C@H]2[C@@H](COC[C@H](O)CN2S(=O)(=O)c2ccc(F)cc2)O1 | i
O=C1CN(S(=O)(=O)c2ccccc2)C[C@@H]2[C@@H](c3ccc(Br)cc3)[C@H](CO)N12 | i
O=C(C[C@H]1CC[C@@H]2[C@H](COC[C@H](O)CN2C(=O)c2cccnc2)O1)NCc1ccccc1 | i
COCC(=O)N1[C@@H](CO)[C@@H]2c3ccccc3N(C(=O)C3CC3)C[C@@H]21 | i
CO[C@@H]1CN(C)C(=O)c2ccc(NC(=O)Nc3ccccc3)cc2OC[C@@H](C)N(C(=O)CC2CC2)C[C@H]1C | i

2 successive records out of the list so far:
SMILES | FGF22 binding
Cc1ccccc1S(=O)(=O)NCC[C@H]1CC[C@@H](NC(=O)Nc2cccc(Cl)c2)[C@H](CO)O1 | i
CCCC#Cc1ccc2c(c1)O[C@@H](CN(C)Cc1ccccn1)[C@H](C)CN([C@H](C)CO)S2(=O)=O | i

Compound activity: PubChem BioAssay, Broad Institute

A portion of the library (hit frequency here may not be typical).
